High-throughput results from PubChem BioAssay.
LASV entry inh – qHTS for Inhibitors of binding or entry into cells for Lassa Virus. Lassa virus pseudotype entry inhibition, cell reporter; control for the full effect not named in the record. Potency, µM (doses to about 37.9 µM), for inactives: top-dose activity change, negative = inhibition, actives largely listed as inhibitors. 300,000 tested, 1.2% active. AID 540256, 2011; active means well fitted inhibition curve with a large enough effect; inconclusive means small, poorly fitted or top-dose-only effect, or effect the other way; inactive means flat fitted curve, though single readings scatter; tested in HEK293 cells; further: on the % scale 0 is the no-effect control and ±100 the full control effect; nearly all actives have a fitted effect of over 50% in size; luciferase read-out
NS1 inh – qHTS Assay for Inhibitors of Influenza NS1 Protein Function; S. cerevisiae slowed by influenza A NS1, growth recovery by OD600; Potency, µM (titrated, usually from 46.1 µM), inactives show at the highest dose activity, positive = more growth; 270,000 tested, 0.4% active; further: actives are rising curves; nearly all actives have a fitted effect of over 50% in size
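Read-out: OD600 growth recovery of NS1-expressing budding yeast. Cells grown overnight at 30C in -URA glucose medium, washed, resuspended and diluted 1:100 in 2% galactose assay medium, pH 6.0. Same strain lacking NS1 served as positive control.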
Cruzain noTriton – qHTS Assay for Promiscuous and Specific Inhibitors of Cruzain (without detergent); purified cruzain, Z-FR-AMC fluorescence, no detergent; Potency, µM, for inactives: max response, negative = inhibition, actives largely listed as inhibitors; 200,000 tested, 2.3% active; active means well fitted curve in the direction sought with a large enough effect; inconclusive means small, poorly fitted or top-dose-only effect, or another doubt; inactive means no such curve, though single readings can be large; an effect the other way counts as inactive or inconclusive;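 further: plate controls were enzyme without inhibitor for no effect and buffer without enzyme for full effect; nearly all actives have a fitted effect of over 40% in size; top concentration of the series not given in the record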
Target sequence (P25779 123-467 limits assumed): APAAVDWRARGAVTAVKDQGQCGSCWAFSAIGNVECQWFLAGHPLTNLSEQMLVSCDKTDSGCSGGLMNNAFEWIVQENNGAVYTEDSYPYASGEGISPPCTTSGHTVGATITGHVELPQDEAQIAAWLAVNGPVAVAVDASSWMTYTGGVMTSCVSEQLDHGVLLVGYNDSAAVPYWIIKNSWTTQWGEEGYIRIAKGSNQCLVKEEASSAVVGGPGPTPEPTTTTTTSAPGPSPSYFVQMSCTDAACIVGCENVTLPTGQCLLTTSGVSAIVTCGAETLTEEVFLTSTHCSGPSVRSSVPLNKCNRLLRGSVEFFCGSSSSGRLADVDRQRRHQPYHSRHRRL
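Detergent-free condition (0.00005% Triton X-100) in acetate buffer pH 5.5 with DTT. 1.5 nM enzyme and compound were pre-mixed 15 min, then 2 uM Z-FR-AMC substrate added; reaction progress from fluorescence change between first and third reads (60 s).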
SARS PLP yeast – qHTS of Yeast-based Assay for SARS-CoV PLP; S. cerevisiae expressing SARS-CoV PLpro, growth rescue; control for the full effect not named in the record; Potency, µM (titrated, usually from 32.9 µM), for the others: top-dose activity, positive = growth rescue; 330,000 tested, 0.19% active; further: 0% is about no effect; nearly all actives have a fitted effect of over 55% in size; growth read by luminescence after 48 h
Cruzain inh Det – qHTS Assay for Promiscuous and Specific Inhibitors of Cruzain (with detergent) | Cruzipain (Trypanosoma cruzi), P25779 | purified cruzain, Z-FR-AMC fluorescence, 0.01% Triton | Potency, µM, for the others: max response, negative = inhibition, actives largely listed as inhibitors | 200,000 tested, 0.43% active | AID 1478, 2009; active means well fitted curve in the direction sought with a large enough effect; inconclusive means small, poorly fitted or top-dose-only effect, or another doubt; inactive means no such curve, though single readings can be large; an effect the other way counts as inactive or inconclusive;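 further: plate controls were neutral wells for no effect and buffer without enzyme for full effect; nearly all actives have a fitted effect of over 40% in size; top concentration of the series not given in the record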
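Detergent-containing run (0.01% Triton X-100) in acetate buffer pH 5.5 with 5 mM DTT: enzyme at 1.5 nM final, 15 min compound preincubation at room temperature, then 2 uM Z-FR-AMC substrate. Activity taken as 60 s fluorescence increase at 360/450 nm.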
MARV entry inh – qHTS for inhibitors of binding or entry into cells for Marburg Virus; Marburg virus pseudotyped entry inhibition, cell reporter; control for the full effect not named in the record; about a third of the inactives were read at about 46 µM; Potency, µM (highest dose often 37.8 µM), without a hit: at the highest dose activity change, negative = inhibition, hits mostly inhibitors; 300,000 tested, 1.8% active; active = well fitted inhibition curve with a large enough effect; inconclusive = small, poorly fitted or top-dose-only effect, or effect the other way; inactive = flat fitted curve, though single readings scatter; tested in HEK293 cells; about a fifth of its hits are not listed in these tables; further: on the % scale 0 is the no-effect control and ±100 the full control effect; luciferase read-out
RE007 growth inh – qHTS Assay for Inhibitors of the HIV-1 protein Vpr. 360,000 tested, 0.21% active. S. pombe RE007 Vpr strain, BacTiter-Glo ATP luminescence, 24 h; control for the full effect not named in the record. AID 651644, 2012. Potency, µM (doses to about 92.2 µM), inactives show at the highest dose activity change, negative = less growth; active = well fitted falling curve with a large enough effect; inconclusive = small, poorly fitted or top-dose-only effect; inactive = no such curve, though single readings can be large or run the other way;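 further: on the % scale 0 is the no-effect control and ±100 the full control effect; nearly all actives have a fitted effect of over 50% in size; the assay follows cell death caused by Vpr and the record does not say whether a fall means rescue or toxicity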
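Fission yeast RE007 carrying one integrated HIV-1 vpr copy, seeded at OD 0.01 in PMG+AL medium with 23 nL pinned compound. Grown 24 h at 30 degrees; viability read by BacTiter-Glo luminescence after 5 min.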
StopGo reporter – High Throughput Screening for Foot and Mouth Disease Virus Antivirals; human cells with a luciferase reporter of 2A StopGo recoding; control for the full effect not named in the record; 410,000 tested, 1.2% active; Potency, µM (highest dose often 57.9 µM), for inactives: at the top dose signal change, negative = less light; active = well fitted falling curve with a large enough effect; inconclusive = small, poorly fitted or top-dose-only effect; inactive = no such curve, though single readings can be large or run the other way; tested in HEK293T cells; further: on the % scale 0 is the no-effect control and ±100 the full control effect; nearly all actives have a fitted effect of over 45% in size; luciferase light after 4 h
Active calls of the source: *; ? = inconclusive; · = not tested or not shown; & = joins results of further samples; [ ] = another dose, or the depositor's remark. Unless noted, the call rests on the fitted dose curve; in most records, active means well fitted rising curve with a large enough effect; inconclusive means small, poorly fitted or top-dose-only effect; inactive means no such curve, though single readings can be large or run the other way. Potency means the concentration at half of the fitted maximal effect. This is a random part of the collection; any-hit rate near 4.7%.

Values run as follows: NS1 inh	Cruzain noTriton	Cruzain inh Det	StopGo reporter	RE007 growth inh	MARV entry inh	SARS PLP yeast	LASV entry inh
1. Cc1c(Cl)cccc1NC(=S)NCCc1ccc(F)cc1
  -89%	·	·	21%	0%	7%	4%	-18%
2. CC(C)=NOCc1ccc(-c2cn([C@@H]3COC[C@H]3O)nn2)cc1
  -14%	5%	1.2%	·	·	7%	9%	0%
3. Cc1n[nH]c(=O)c2c(NC(=O)CSc3nncs3)oc(C)c12
  ·	·	·	-16%	9%	11%	11%	-5%
4. CC(=O)c1cccc(NC(=O)CN2C(=O)CCc3cc(S(=O)(=O)N4CCCCC4)ccc32)c1
  ·	-2%	0.6%	15%	·	·	·	16%[46.1 µM]
5. Nc1nonc1C(=O)N/N=C/c1cc2c(cc1[N+](=O)[O-])OCO2
  3%	·	·	-3%	-6%	?	-2%	9%[46.1 µM]
6. CC(=O)c1cccc(S(=O)(=O)N2CCN(c3nc4cc(C)cc(C)c4cc3C#N)CC2)c1
  10µM*	16µM*	-1.1%	-22%	2%	?	4%	-12%
7. COc1ccc(NC(=O)CCOc2ccccc2F)cc1S(=O)(=O)N1CCCCC1
  ·	·	·	?	-14%	?	0%	?
8. CCC(C(=O)NC(C)(C)C)N(Cc1cccs1)C(=O)CNS(=O)(=O)c1ccccc1 (centres undefined)
  0%	·	·	0%	-13%	·	1%	·
9. CC(=O)Nc1ccc2c(c1)N(C(=O)CN(C)C)c1ccccc1CC2
  2%	-6%	2.7%	·	-10%	0%	9%	-3%
10. O=C(NCC1CCCO1)C(c1ccc(F)cc1)N(Cc1ccc(F)cc1)C(=O)Cn1nnc(-c2cccs2)n1 (centres undefined)
  -1%	28%	0.7%	13%	5%	14%	-3%	0%
11. CCCc1noc2c1C(c1ccoc1)C(C#N)=C(N)N2 (centres undefined)
  -11%	14%	-0.7%	-24%	0%	-4%	-11%	-10%
12. NC(=O)c1cccnc1Nc1cccc([N+](=O)[O-])c1
  -4%	·	·	38%[activator]	-3%	?	-2%	?
13. COc1ccc(-c2cc(C(F)(F)F)c(C#N)c(=O)[nH]2)cc1
  1%	·	·	-8%	10%	10%[46.1 µM]	-1%	-22%[46.1 µM]
14. Cc1cccc(C(=O)OCC(=O)N(C)c2ccccc2)c1C
  -26%	·	·	5%	0%	-10%[46.1 µM]	1%	?
15. COc1cccc(Nc2nc(-c3ccccc3O)nc3ccccc23)c1
  2%	·	·	-29%	1%	·	1%	·
16. CCOC(=O)C1C(c2ccccc2)NC(=S)NC1(C)O (centres undefined)
  ·	·	·	1%	9%	?	-1%	0%
17. COc1cc(/C=C2\SC(=S)N(CCC(=O)Nc3ccccc3)C2=O)cc(OC)c1OC
  -1%	·	·	-29%	1%	?	-1%	-11%
18. Cc1ccc(-n2nc3c(=O)n(C(C)C(=O)NCCCc4ccccc4)nc(C)c3c2C)cc1 (centres undefined)
  2%	·	·	?	-11%	·	-1%	·
19. CCOc1ccccc1N1CCN(C(=O)c2ccccc2SCC(=O)N2CCCC2)CC1
  4%	·	·	-7%	-14%	-26%	-1%	-1%
20. Nn1c(Cc2cccc3ccccc23)nnc1SCn1nnc2ccccc2c1=O
  10%	?	0.1%	-18%	-3%	-12%	-9%	0%
21. CC[C@]1(c2ccccc2)C(=O)N(C(=O)OC)N1C(=O)OC
  0%	·	·	-10%	3%	·	1%	·
22. CCOC(=O)c1cc2c(=O)n3ccccc3nc2n(CCOC)c1=NC(=O)c1c(-c2c(F)cccc2Cl)noc1C
  ·	?	6.4%	-4%&-10%	-17%	?	-1%	?
23. COc1ccccc1C(=O)Nc1ccc(S(=O)(=O)NC2=NCCCCC2)cc1
  ·	·	·	7%	12%	-19%[46.1 µM]	0%	-25%[46.1 µM]
24. CC(=O)NS(=O)(=O)c1ccc(NC(=O)/C=C/c2ccccc2Cl)cc1
  2%	-5%	-4.0%	-13%	19%	?	4%	-9%
25. O=C(CSc1ncnc2c1cnn2CCc1ccccc1)Nc1cccc(C(F)(F)F)c1
  4%	-1%	-13%	?	5%	?	0%	?
26. O=C(NC1CC(=O)N(c2ccc(F)cc2)C1)c1cc2ccccc2o1 (centres undefined)
  ·	-7%	-2.8%	-7%	·	·	·	-18%[46.1 µM]
27. CC(=O)C1C(N2CC2)CC2C3CCC4=CC(=O)CCC4(C)C3CCC21C (centres undefined)
  ·	·	·	-17%	0%	?	·	?
28. CN(CC(=O)Nc1ccc(F)c(F)c1F)C(=O)CN1C(=O)NC2(CCCC2)C1=O
  ·	·	·	-18%	2%	-3%[46.1 µM]	3%	-2%
29. CN(C)c1ccc(C(=O)OCC(=O)N2CCOCC2)cc1
  ?	·	·	0%	-10%	-1%[46.1 µM]	0%	-2%
30. CCOC(=O)c1c(NC(=O)CN2CCCc3ccccc32)sc(C(C)=O)c1C
  -2%	?	-1.2%	-5%	3%	0%	19%	-26%
31. O=C(NCCc1ccccc1)C1c2ccccc2C(=O)N1Cc1cccs1 (centres undefined)
  ·	·	·	13%	-3%	-1%[46.1 µM]	1%	-25%
32. COC(=O)C(C(=O)OC)C(C(C)C)C(C(=O)OC)C(=O)OC
  -3%	5%	-0.6%	-2%	-6%	3%	-13%	13%
33. CCOC(=O)C1=C(C)NC(C)=C(C(=O)OCC)C1c1ccc(Br)o1
  -7%	14%	-12%	-30%	0%	-44%	18%	-3%
34. Nc1ccn(C2CCCCO2)c(=O)n1 (centres undefined)
  ·	·	·	-5%	-10%	-1%[46.1 µM]	·	-24%[46.1 µM]
35. Cc1nn(CCCC(=O)Nc2sc3c(c2C#N)CCC3)c(C)c1[N+](=O)[O-]
  3%	?	2.8%	·	-4%	-22%	2%	0%
36. CN1CCC(=NNC(=O)c2ccc(N(Cc3ccc(Cl)cc3)S(C)(=O)=O)cc2)CC1
  13%	-11%	1.3%	-15%	7%	1%	-6%	-4%
37. O=C(CC12CC3CC(CC(Br)(C3)C1)C2)Nc1nncs1
  2%	·	·	-13%	5%	23%[46.1 µM]	4%	13%[46.1 µM]
38. Cc1ccc(S(=O)(=O)N2CCCC(C(=O)N(Cc3cccs3)C3CC3)C2)cc1 (centres undefined)
  -2%	1%	-3.6%	?	0%	5%	-11%	?
39. CCn1c(C)[n+](Cc2ccccc2)c2ccc(Cl)cc21
  ·	·	·	-27%	-19%	-21%[46.1 µM]	0%	·
40. CCCCN(C(=O)CC(c1ccccc1)c1ccccc1)c1c(N)n(CCC)c(=O)[nH]c1=O
  -15%	-2%	-1.1%	-2%	-20%	19%	27%	?
41. O=C1/C(=C/C=C/c2ccco2)SC(=S)N1NS(=O)(=O)c1ccccc1
  -1%	·	·	-15%	-12%	·	2%	·
42. c1ccc(Cn2nnnc2C(c2cccs2)N2CCOCC2)cc1 (centres undefined)
  -3%	4%	2.1%	12%	0%	7%	2%	-4%
43. O=C(CCNS(=O)(=O)c1ccccc1C(F)(F)F)N1CCN(C(c2ccccc2)c2ccccc2)CC1
  ·	·	·	?	3%	7.1µM*	2%	?
44. CCOc1cc(N2CCOCC2)c(OCC)cc1NC(=O)COC(=O)c1c(CC)noc1C
  ·	·	·	-24%	10%	6%[46.1 µM]	9%	?
45. CC(=O)Nc1ccc(NC(=O)c2ccc3c(c2)N(Cc2cccc(Cl)c2)C(=O)c2ccccc2S3(=O)=O)cc1
  ·	-20%	-5.3%	-16%	·	?	·	-18%[46.1 µM]
46. O=C1ON=C(c2ccccc2)/C1=C/c1ccc(O)cc1
  -5%	·	·	?	-3%	·	0%	·
47. C/C(=N\NC(=O)c1nn(C)c(C)c1Br)c1ccc(NC(=O)c2ccccc2F)cc1
  2%	4%	-0.4%	7%	-13%	-1%	5%	28%
48. CCN(CC)S(=O)(=O)c1ccc(N2CCOCC2)c(NC(=O)c2ccc(C#N)cc2)c1
  4%	·	·	0%	-4%	-5%	1%	-26%
49. COCCCn1nnnc1SCC(=O)N1c2ccccc2CC1C (centres undefined)
  0%	·	·	-13%	-4%	·	6%	·
50. c1ccc(-c2nc3ccccn3c2-c2ccccc2)cc1
  ·	·	·	?	-6%	?	·	-21%
51. CCOC(=O)CC1C(=O)NCCN1S(=O)(=O)c1ccc(NC(C)=O)cc1 (centres undefined)
  10%	·	·	-1%	16%	-26%[46.1 µM]	-2%	7%[46.1 µM]
52. COC(=O)CSC1=C(C#N)C(c2ccc(Cl)cc2)C(C(=O)OC)C(=O)N1 (centres undefined)
  ?	-3%	-0.2%	-22%	14%	-9%	0%	-18%
53. C=CCN(C(=O)Nc1ccc2oc(C)nc2c1)c1ccccc1
  4%	1%	-1.7%	0%	4%	2%[46.1 µM]	8%	26%
54. COc1ccc(N2CCN(Cc3cc(=O)oc4ccc(C)cc34)CC2)cc1
  10%	?	-0.2%	13%	2%	4%	-7%	-23%
55. CC(C)Cn1c(CN2CCN(C)C(CCO)C2)nc2ccccc21 (centres undefined)
  2%	·	·	-9%	1%	·	-6%	·
56. Cc1ccc(S(=O)(=O)c2nc(-c3ccccc3Cl)oc2N2CCN(C)CC2)cc1
  ·	·	·	-8%	-18%	?	-1%	?
57. CCC1CC(C(=O)Nc2ccccc2)C(=O)O1 (centres undefined)
  ·	·	·	9%	20%	?	·	0%[46.1 µM]
58. Brc1cccc(-c2n[nH]c(-c3ccccc3)n2)c1
  -110%	-25%	-17%	4%	?	-24%	-21%	-7%
